StopGo reporter = High Throughput Screening for Foot and Mouth Disease Virus Antivirals; Potency, µM (highest dose often 57.9 µM), for the others: at the top dose signal change, negative = less light; 1.2% of 410,000 active; human cells with a luciferase reporter of 2A StopGo recoding; control for the full effect not named in the record; active = well fitted falling curve with a large enough effect; inconclusive = small, poorly fitted or top-dose-only effect; inactive = no such curve, though single readings can be large or run the other way; tested in HEK293T cells; also: % is scaled to controls: 0 for no effect and ±100 for the full control effect; nearly all actives have a fitted effect of over 45% in size; luciferase light after 4 h
RE007 growth inh = qHTS Assay for Inhibitors of the HIV-1 protein Vpr | S. pombe RE007 Vpr strain, BacTiter-Glo ATP luminescence, 24 h; control for the full effect not named in the record | Potency, µM (titrated, usually from 92.2 µM), without a hit: at the highest dose activity change, negative = less growth | 0.21% of 360,000 active; active = well fitted falling curve with a large enough effect; inconclusive = small, poorly fitted or top-dose-only effect; inactive = no such curve, though single readings can be large or run the other way;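 also: % is scaled to controls: 0 for no effect and ±100 for the full control effect; nearly all actives have a fitted effect of over 50% in size; the assay follows cell death caused by Vpr and the record does not say whether a fall means rescue or toxicity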
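Fission yeast strain RE007, carrying one chromosomally integrated HIV-1 vpr copy, was seeded at OD 0.01 in PMG+AL medium with 23 nL pinned compound. After 24 h at 30 °C and 99% humidity, viability was read by BacTiter-Glo luminescence.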
LASV entry inh = qHTS for Inhibitors of binding or entry into cells for Lassa Virus. Lassa virus pseudotype entry inhibition, cell reporter; control for the full effect not named in the record. Potency, µM (titrated, usually from 37.9 µM), for the others: top-dose activity change, negative = inhibition, usual class: inhibitors. 1.2% of 300,000 active. AID 540256, 2011; active means well fitted inhibition curve with a large enough effect; inconclusive means small, poorly fitted or top-dose-only effect, or effect the other way; inactive means flat fitted curve, though single readings scatter; tested in HEK293 cells; also: % is scaled to controls: 0 for no effect and ±100 for the full control effect; nearly all actives have a fitted effect of over 50% in size; luciferase read-out
SARS PLpro yeast = qHTS of Yeast-based Assay for SARS-CoV PLP | S. cerevisiae expressing SARS-CoV PLpro, growth rescue; control for the full effect not named in the record | Potency, µM (series often up to 32.9 µM), inactives show top-dose activity, positive = growth rescue | 0.19% of 330,000 active | AID 485353, 2010; also: 0% is about no effect; nearly all actives have a fitted effect of over 55% in size; growth read by luminescence after 48 h
NS1 function inh = qHTS Assay for Inhibitors of Influenza NS1 Protein Function; Potency, µM (series often up to 46.1 µM), for the others: at the top dose activity, positive = more growth; S. cerevisiae slowed by influenza A NS1, growth recovery by OD600; 0.4% of 270,000 active; AID 2326, 2010; also: actives are rising curves; nearly all actives have a fitted effect of over 50% in size
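Recovery from NS1-induced slow growth read by OD600 in budding yeast switched to galactose assay medium (pH 6.0, -URA) at 1:100 dilution. Compound 23 nl per well; the matching strain lacking NS1 serves as control.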
Cruzain inh Det = qHTS Assay for Promiscuous and Specific Inhibitors of Cruzain (with detergent) | Cruzipain (Trypanosoma cruzi), P25779 | purified cruzain, Z-FR-AMC fluorescence, 0.01% Triton | Potency, µM, for inactives: max response, negative = inhibition, actives largely listed as inhibitors | 0.43% of 200,000 active | AID 1478, 2009; active = well fitted curve in the direction sought with a large enough effect; inconclusive = small, poorly fitted or top-dose-only effect, or another doubt; inactive = no such curve, though single readings can be large; an effect the other way counts as inactive or inconclusive;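 also: plate controls were neutral wells for no effect and buffer without enzyme for full effect; nearly all actives have a fitted effect of over 40% in size; top concentration of the series not given in the record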
Target sequence (P25779 123-467 limits assumed): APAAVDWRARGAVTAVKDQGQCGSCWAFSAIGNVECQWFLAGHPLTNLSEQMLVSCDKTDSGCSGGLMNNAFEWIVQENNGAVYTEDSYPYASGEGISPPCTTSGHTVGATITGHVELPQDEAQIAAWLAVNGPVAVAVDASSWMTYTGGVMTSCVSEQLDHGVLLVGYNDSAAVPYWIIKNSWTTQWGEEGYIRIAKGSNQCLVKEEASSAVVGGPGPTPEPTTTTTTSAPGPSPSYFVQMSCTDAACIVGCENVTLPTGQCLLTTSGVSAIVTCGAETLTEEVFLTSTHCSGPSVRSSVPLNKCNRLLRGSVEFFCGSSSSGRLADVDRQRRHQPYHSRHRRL
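Enzyme 1.5 nM, Z-FR-AMC 2 uM, NaOAc 100 mM pH 5.5, DTT 5 mM, Triton X-100 0.01%; 15 min RT compound preincubation; kinetic ex360/em450, 60 s delta.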
Cruzain inh noDet = qHTS Assay for Promiscuous and Specific Inhibitors of Cruzain (without detergent); purified cruzain, Z-FR-AMC fluorescence, no detergent; Potency, µM, for inactives: max response, negative = inhibition, usual class: inhibitors; 2.3% of 200,000 active; AID 1476, 2009; active = well fitted curve in the direction sought with a large enough effect; inconclusive = small, poorly fitted or top-dose-only effect, or another doubt; inactive = no such curve, though single readings can be large; an effect the other way counts as inactive or inconclusive;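 also: plate controls were enzyme without inhibitor for no effect and buffer without enzyme for full effect; nearly all actives have a fitted effect of over 40% in size; top concentration of the series not given in the record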
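Detergent-free condition (0.00005% Triton X-100) in acetate buffer pH 5.5 with DTT. 1.5 nM enzyme and compound were pre-mixed 15 min, then 2 uM Z-FR-AMC substrate added; reaction progress from fluorescence change between first and third reads (60 s).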
MARV entry inh = qHTS for inhibitors of binding or entry into cells for Marburg Virus; Potency, µM (series often up to 37.8 µM), inactives show at the top dose activity change, negative = inhibition, usual class: inhibitors; Marburg virus pseudotyped entry inhibition, cell reporter; control for the full effect not named in the record; about a third of the inactives were read at about 46 µM; 1.8% of 300,000 active; active = well fitted inhibition curve with a large enough effect; inconclusive = small, poorly fitted or top-dose-only effect, or effect the other way; inactive = flat fitted curve, though single readings scatter; tested in HEK293 cells; about a fifth of its hits are not listed in these tables; also: % is scaled to controls: 0 for no effect and ±100 for the full control effect; luciferase read-out
* = called active by the depositor; ? = inconclusive; / = not tested or not shown; & = joins results of further samples; [ ] = another dose, or the depositor's remark. Unless noted, calls follow the shape of the dose curve; as a rule, active means well fitted rising curve with a large enough effect; inconclusive means small, poorly fitted or top-dose-only effect; inactive means no such curve, though single readings can be large or run the other way. Potency is read from the fitted curve at half-maximal effect.

Values run as follows: LASV entry inh, Cruzain inh noDet, MARV entry inh, StopGo reporter, NS1 function inh, SARS PLpro yeast, RE007 growth inh, Cruzain inh Det
Nc1n[nH]c(N)c1N=Nc1ccccc1F
→ -3.2%[46.1 µM], /, 26.6%[46.1 µM], 30.4%[activator], 5.4%, -3.7%, 6.9%, /
Cc1cc([N+](=O)[O-])ccc1-c1ccc(/C=N/NC(=O)c2ccc(Br)o2)o1
→ /, /, /, ?, -27.9%, ?, 0.4%, /
Cc1ccc(C2(C)NC(=O)N(CC(=O)NNC(=O)c3ccccc3F)C2=O)cc1 (stereo not given)
→ 7.5%, /, ?, 16.1%, /, -0.5%, 27.1%, /
COc1ccc(N(CN2C(=O)C3CCCCC3C2=O)C(=O)c2ccco2)cc1 (stereo not given)
→ -8.6%, /, -5.3%, -16.7%, -0.7%, 0.6%, -0.7%, /
CCn1c(SCC(=O)Nc2ccc3c(c2)OCCO3)nnc1-c1ccco1
→ 2.0%, -14.0%, 13.3%, /, -5.3%, -0.7%, 5.0%, 1.6%
Cc1ccc(SCCCn2cncn2)cc1
→ 19.9%, -3.8%, 11.2%[46.1 µM], 18.1%, -14.9%, -2.4%, -9.0%, 2.5%
O=C(CSc1nnc(-c2ccc(O)cc2)n1Cc1ccco1)c1cccs1
→ -5.0%, 4.7%, -8.2%, -23.3%, -7.1%, -1.5%, 1.1%, -5.8%
COc1ccc(N2CCN(C(CNC(=O)OCc3ccccc3)c3ccco3)CC2)cc1 (stereo not given)
→ ?, -0.2%, 5.7%, -21.7%, -36.3%, -1.7%, 8.6%, -3.1%
C=CCSc1nnc2c(n1)OC(c1ccccn1)N(C(C)=O)c1ccccc1-2 (stereo not given)
→ -0.8%, 0.0%, -3.9%[46.1 µM], -8.6%, -2.3%, 5.0%, -0.3%, 4.1%
COc1ccc2cc(Br)ccc2c1CC(=O)NC(C)C
→ 3.9%, /, ?, -23.9%, 0.3%, 0.1%, -9.4%, /
C=C(C)CNC(=S)/N=c1\scc(C)n1CC
→ -2.0%, -3.1%, 15.0%, -12.0%, -11.7%, -41.1%, -15.5%, -6.6%
CC1CN(S(=O)(=O)c2cccc(C(=O)NN3CCN(C)CC3)c2)CC(C)O1 (stereo not given)
→ 1.9%, -13.1%, 21.5%, -20.4%, 14.5%, 2.5%, -6.8%, -0.9%
O=Cc1nc(-c2ccccc2Cl)n2ccccc12
→ ?, -16.7%, 4.4%, /, 16.5%, -1.1%, -0.4%, -3.0%
COc1ccc(N2CCN(C(c3cc4ccc(C)cc4[nH]c3=O)c3nnnn3C3CCCC3)CC2)cc1 (stereo not given)
→ -25.1%, 10.4%, ?, -3.6%, 7.3%, -3.5%, -0.7%, -0.8%
COc1cc(OC)cc(C(=O)N2CCC(C(=O)c3ccc(F)cc3)CC2)c1
→ ?, /, -22.8%, 0.5%, 10.4%, 1.7%, 2.1%, /
CCc1cc(=O)oc2cc(OCC(=O)N3CCC(C(=O)O)CC3)ccc12
→ /, /, /, -23.3%, -3.9%, ?, -10.1%, /
O=C(CCl)Nc1c(C(=O)Nc2ccc3c(c2)OCCO3)oc2ccccc12
→ ?, /, ?, ?, 16.2%, 9.5%, -3.4%, /
COc1cc(C(=O)NC(CCSC)C(=O)OCc2cc([N+](=O)[O-])cc3c2OCOC3)cc(OC)c1OC (stereo not given)
→ 3.1%[46.1 µM], /, -8.2%[46.1 µM], -7.9%, /, -1.6%, 12.5%, /
CCN1CCN(C(=O)c2cnn(-c3ccc(F)cc3F)c2C2CCN(C(=O)OC(C)(C)C)CC2)CC1
→ -22.6%[46.1 µM], -1.7%, /, -6.8%, /, /, /, 0.9%
CC(C)CC(=O)Nc1ccc2nc(SCC(=O)N3CCOCC3)sc2c1
→ 11.8%[46.1 µM], 16.4%, -19.6%[46.1 µM], -29.1%, /, /, /, 0.5%
OCCC1CN(Cc2ccn[nH]2)CCN1Cc1ccc(F)c(F)c1 (stereo not given)
→ 13.3%[46.1 µM], /, -26.7%[46.1 µM], 0.0%, 0.2%, 0.4%, 1.7%, /
CC1CCCC(C)N1C(=O)COc1ccc(-c2nnco2)cc1 (stereo not given)
→ 11.6%, 1.4%, 24.4%, -3.7%, -0.4%, 8.4%, 14.0%, 2.7%
Nc1ncnc(NNC(=O)CNC(=O)c2c(F)cccc2Cl)c1[N+](=O)[O-]
→ -13.3%, /, 9.5%[46.1 µM], 7.3%, /, 1.2%, 8.8%, /
C=C(C)COC(=O)c1ccccc1C(=O)OCC1(C)CO1 (stereo not given)
→ 0.4%, /, -11.4%, -25.3%, /, /, 6.3%, /
COc1ccc(CCNC(=O)c2ccc(=O)[nH]n2)cc1OC
→ -1.2%, -2.9%, -10.0%, -19.9%, 1.1%, ?, 0.4%, -0.7%
CCOc1ccc(C(=O)c2cccs2)cc1
→ 15.9%, -3.4%, 17.5%, 0.0%, -15.0%, 1.7%, ?, -0.8%
Cc1ccccc1NC(=O)COC(=O)/C=C/c1cn(-c2ccccc2)nc1-c1cccnc1
→ -11.7%, 25.1µM*, -0.5%, -18.2%, 26.1%, 14.2%, 17.0%, -5.1%
O=C(CNC(=O)c1ccc(Cl)cc1)NNc1c(F)c(F)cc(F)c1F
→ 3.2%[46.1 µM], /, -9.6%[46.1 µM], 32.2%[activator], /, -5.4%, -4.5%, /
CCOc1ccc(S(=O)(=O)Nc2ccccc2C(=O)N2CCOCC2)cc1
→ 0.2%, /, 10.8%, 14.6%, -5.4%, 1.0%, 4.1%, /
COc1cc(CNn2c(C)n[nH]c2=S)cc(Br)c1OCC(=O)NC(C)(C)C
→ /, /, /, -13.9%, 6.9%, 17.6%, 38.2%, /
Cc1ccc(CSc2nc3c(cc2C#N)CCC3)cc1
→ 15.2%, -12.2%, 16.5%, 13.4%, 11.0%, 2.7%, 0.9%, 4.0%
C=CCNC(=O)COC(=O)COc1ccc(Cl)cc1C
→ 8.0%, -2.2%, 10.3%, 16.2%, -14.3%, -4.0%, 5.1%, 5.1%
COC(=O)[C@H]1C[C@@H]1[C@H](NP(=O)(c1ccccc1)c1ccccc1)c1ccccc1
→ 4.9%, 0.5%&6.2%, -45.0%, 2.5%, -6.6%, -2.7%, 17.9%, -1.8%&-2.1%
N#Cc1ccc(NC(=O)CCc2ccc(S(=O)(=O)N3CCOCC3)cc2)cc1
→ -15.0%, 0.7%, -2.6%, 28.2µM*, 2.4%, 24.4%, 0.5%[3.69 µM], 2.4%
Cc1c(CN2CCc3c([nH]c4ccccc34)C2CC(C)C)cnn1C (stereo not given)
→ /, /, /, -11.7%, -3.0%, 3.0%, 1.7%, /
CC(OC(=O)/C=C/c1cccc(F)c1)C(=O)NC1CCCCC1C (stereo not given)
→ /, /, /, -24.5%, 10.6%, -1.3%, -1.1%, /
O=C(O)c1cc([N+](=O)[O-])ccc1NCCc1ccccc1
→ 7.3%, /, -11.8%, -3.8%, -2.0%, -0.6%, -10.2%, /
COc1ccc(OC)c(S(=O)(=O)NCc2ccccn2)c1
→ /, /, /, 58.1%[activator], 3.3%, -8.9%, 1.8%, /
CCCOc1cccc(NC(=O)c2c(-c3ccccc3Cl)noc2C)c1
→ -18.6%[46.1 µM], -16.4%, ?, -13.5%, /, /, /, -7.4%
CC1(C)C(=O)Nc2ccccc2N1C(=O)COC(=O)Cc1c(F)cccc1Cl
→ 4.9%, /, -13.6%, -22.8%, /, 5.6%, 18.7%, /
N/C(=N/OCc1cccc([N+](=O)[O-])c1)c1nonc1N
→ 18.3%, -11.4%, 2.2%, -19.5%, -12.8%, -4.7%, -15.3%, -3.8%
CCn1c(=O)c2cc(C(=O)N(C)c3ccc(OC)cc3OC)sc2c2ccccc21
→ /, /, /, ?, 2.8%, -1.9%, 1.1%, /
CNC(=S)N1CCc2cc(OC)c(OC)cc2C1
→ 0.4%, /, -2.5%[46.1 µM], 17.7%, -5.5%, 0.1%, 0.0%, /
Cc1cnc(NC(=O)Cc2c[nH]c3ccccc23)s1
→ ?, -5.4%, 12.8%, 84.8%[activator], -9.6%, -9.1%, 18.4%, -0.9%
Cc1noc(C)c1C(=O)Nc1sc2c(c1C(N)=O)CCC2
→ 4.5%, -5.1%, -7.3%, 4.7%, 9.6%, 1.6%, -17.4%, -2.1%
Cc1c(C(=O)OCCN2CCCCC2)oc2ccccc12
→ ?, 7.7%, 3.3%, 43.7%[activator], -8.2%, -2.3%, 1.5%, 2.6%
CC(=O)NC(NC(C)=O)c1ccc(N(C)C)cc1
→ 10.7%, -1.6%, 19.1%, 13.4%, -33.7%, 3.8%, -11.4%, -6.5%
CCOc1ccccc1NC(=O)C1CCN(S(=O)(=O)c2cccc3cccnc23)CC1
→ /, -11.7%, 0.4%, /, -54.8%, 7.0%, /, 0.0%
COc1ccc(CN(CC2CCCO2)C(=O)CN2C(=O)C(C)Oc3ccc(C)cc32)cc1OC (stereo not given)
→ -9.7%, ?, 5.2%, -29.6%, -0.7%, 5.6%, -6.3%, -2.2%
CCOc1ccccc1C(=O)Nc1ccc(S(=O)(=O)N2CCCCC2c2cccnc2)cc1 (stereo not given)
→ ?, 1.9%, /, ?, /, /, /, 2.4%
CCOC(=O)Cc1ccc(NC(=O)Nc2c[nH]c(=O)[nH]c2=O)cc1
→ -0.1%[46.1 µM], 4.4%, 11.9%[46.1 µM], -3.2%, /, /, /, -0.7%
COc1cc(S(=O)(=O)N2CCN(C)CC2)c(OC)cc1Br
→ 4.5%, -0.9%, 5.7%&5.7%, 24.5%, -1.6%, 2.2%, 0.6%, -6.6%
COc1cc(C2Nc3cccc4cccc(c34)N2)cc(OC)c1O
→ -24.5%, -21.9%, ?, /, -13.8%, -5.0%, -20.4%, -12.5%
COC(=O)CNC(=O)C(Cc1c[nH]c2ccccc12)NC(=O)OC(C)(C)C (stereo not given)
→ ?, -4.8%, 15.7%, -9.2%, 2.8%, 8.7%, 1.3%, -4.6%

Screens as filed in PubChem.
